Mtb H37Rv – Confirmatory growth inhibition assay against Mycobacterium tuberculosis H37Rv, potency (AID 1949); most inactive calls were filed without a number and no value below 0 was filed; inhibition, % at 10 µg/mL; hits with a dose series show IC50 in µg/mL; 1.6% of 100,000 active;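 active means confirmed in a dose series; inconclusive means about 50% or more but not retested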;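 further: bacteria grown 7 days with compound before Alamar blue readout; 0% = untreated bacteria and 100% = reference antibiotic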
Numbers without * were called inactive; i = inactive; ? = inconclusive. These rows are one share of the data; rates above refer to the full screens.

SMILES	Mtb H37Rv
Cn1cc(Cl)c(C(=O)Nc2cc(C(F)(F)F)ccc2Cl)n1	i
COc1ccc(-c2c(C(F)(F)F)oc3c(CN4CCCC(C)C4)c(O)ccc3c2=O)cc1OC (stereo not drawn)	i
Cc1cccc(N2C(=O)NC(=O)C(CCc3ccncc3)(CCc3ccncc3)C2=O)c1C	i
Cc1cc(Cl)ccc1OCC(=O)NC(=S)Nc1ccc(S(=O)(=O)N2CCCCC2)cc1	i
COc1cccc(C(=O)CS(=O)(=O)c2ccc(C)cc2)c1	1%
O=C(Nc1cc(F)ccc1F)C1CCCCC1	0%
CCc1ccc(N(CC(=O)O)S(=O)(=O)c2ccccc2)cc1	i
COc1ccccc1Nc1nc(-c2ccccc2O)nc2ccccc12	1%
Fc1ccc(CSc2nnc(-c3ccc(Cl)cc3Cl)o2)cc1	i
O=S(=O)(Nc1cccc(Cl)c1)c1ccc2c(c1)OCCO2	i
Cc1cc(OCc2cccc(Br)c2)c2c(C)c(C)c(=O)oc2c1	i
CC(Oc1ccc(Cl)cc1Cl)C(=O)N1CCc2ccccc21 (stereo not drawn)	2%
CCn1c(SCC(=O)Nc2ccc(OC)cc2)nnc1-c1ccc(OC)cc1	i
COc1ccc2nc(Nc3nccc(C)n3)nc(C)c2c1	6%
Cc1cccc(NC(=S)Nc2c(C)n(C)n(-c3ccccc3)c2=O)c1C	i
C=CCNC(=O)c1ccccc1NC(=O)CN(c1ccc(C)cc1C)S(C)(=O)=O	4%
CCOc1ccc(C=Nn2c(-c3ccc(Cl)cc3Cl)n[nH]c2=S)cc1OC	i
O=C(c1cccnc1)N1CCN(CCCc2ccccc2)CC1	i
CCOc1cc(C=O)cc(Br)c1OC(=O)CC	1%
COc1ccc(C(C)NC(=O)c2ccccc2Cl)cc1OC (stereo not drawn)	i
COc1ccc(-c2ccc(S(=O)(=O)Nc3ccccc3OC)cc2)cc1	i
COc1ccc(N(CC(=O)Nc2cc(Cl)ccc2OC)S(=O)(=O)c2ccccc2)cc1	i
Cc1sc2ncnc(SCC(=O)Nc3ccc4c(c3)OCCO4)c2c1C	i
COc1cccc(C(=O)N2CCN(Cc3ccc(C(F)(F)F)cc3)CC2)c1	6%
Cc1sc(NC(=O)Cc2ccc(Cl)cc2)c(C(N)=O)c1C	0%
O=S(=O)(Nc1ccc(O)cc1)c1cccc2cccnc12	i
O=C(NCCOc1ccccc1)c1ccccc1	i
O=C(NC(=S)Nc1ccc(F)cc1)c1ccc(Br)cc1	0.95µg/mL*
O=C(c1cccs1)N1CCN(C(=O)C2CCCO2)CC1 (stereo not drawn)	i
CSc1nc(-c2ccco2)nn1C(=O)CCc1ccccc1	i

4 entries picked at random from the list so far, as already listed:
SMILES	Mtb H37Rv
Fc1ccc(CSc2nnc(-c3ccc(Cl)cc3Cl)o2)cc1	i
O=C(Nc1cc(F)ccc1F)C1CCCCC1	0%
O=C(NC(=S)Nc1ccc(F)cc1)c1ccc(Br)cc1	0.95µg/mL*
Cc1cc(OCc2cccc(Br)c2)c2c(C)c(C)c(=O)oc2c1	i

Additional compounds follow.
SMILES	Mtb H37Rv
COc1c(C)cccc1C(=O)N1CCN(c2ccc([N+](=O)[O-])c(NCc3ccccc3)c2)CC1	i
CC(Oc1ccc(Cl)cc1Cl)C(=O)Nc1ccc(N2CCN(C)CC2)cc1 (stereo not drawn)	11%
COc1ccc(C(=C2C=CC=C2)c2ccc(OC)cc2)cc1	9%
Cc1nn2c3c(cnc2c1-c1ccccc1)C(=O)CC(C)C3 (stereo not drawn)	0%
Brc1ccc(C2=CC(c3ccco3)n3ncnc3N2)cc1 (stereo not drawn)	5%
CCOc1ccc(NC(=S)Nc2sc(C(=O)N(CC)CC)c(C)c2C(=O)OC)c([N+](=O)[O-])c1	i
C=C1C2(C(=O)Nc3ncc(Cl)cc3Cl)CCC(C2)C1(C)C (stereo not drawn)	i
CC1(C)CC(NC(=O)CSc2ccccc2)CC(C)(C)N1	i
O=C(CN1CCN(Cc2ccccc2)CC1)Nc1ccc(S(=O)(=O)N2CCOCC2)cc1	i
COc1cc(CCN2C(=O)c3cccc4cccc(c34)C2=O)c(S(=O)(=O)N2CCN(c3ccccn3)CC2)cc1OC	4%
CC(C)c1ccccc1NC(=S)NC(=O)c1ccccc1Cl	7%
COc1ccc(C(=O)Nc2cc(C)c(I)cc2C)cc1[N+](=O)[O-]	i
COc1ccccc1CNC(=O)C(=O)Nc1ccc(Cl)cc1	i
CCOc1ccc(NC(=O)CN2C(=O)C3C4CCC(C4)C3C2=O)cc1 (stereo not drawn)	i
O=C1CC(NCc2ccc3c(c2)OCO3)C(=O)N1c1ccc2c(c1)OCO2 (stereo not drawn)	5%
O=C(COc1ccc(Cl)cc1Br)N1CCN(c2ccccc2F)CC1	i
CCOc1ccc(NC(=O)c2ccc(CNS(=O)(=O)c3cccc(OC)c3)cc2)cc1	i
CCN(CC)C(=O)c1sc(NC(=S)Nc2cc(C(=O)OC(C)C)cc(C(=O)OC(C)C)c2)c(C(=O)OC)c1C	i
COc1ccc(-c2nc3cc(NC(=O)c4cccc([N+](=O)[O-])c4)ccc3o2)cc1	7%
COCCNC(=O)CN(C1CCCCC1)S(=O)(=O)c1ccc(Br)cc1	i
CCOc1ccc(C(=O)Nc2ccccc2CC)cc1Br	i
O=C(C1CCCO1)N1CCN(C(=S)Nc2ccc(Oc3ccccc3)cc2)CC1 (stereo not drawn)	i
CC1CN(CCOc2ccc3ccccc3c2)CC(C)O1 (stereo not drawn)	i
O=C(Nc1ccc(CN2CCOCC2)cc1)c1cccs1	i
Cc1ccc(-c2nc3cc(NC(=O)c4cncc(Br)c4)ccc3o2)c(Cl)c1	i
N=c1n(CCOc2ccccc2)c2ccccc2n1CCN1CCOCC1	7%
O=C(Cc1ccccc1)OCc1nnc(-c2ccccc2)o1	?
O=C(CC1C(=O)N(c2ccc(F)cc2)C(=S)N1Cc1cccs1)Nc1ccc(F)cc1 (stereo not drawn)	i
Cc1ccc(C)c(-c2csc(NC(=O)c3ccc(S(=O)(=O)N4CCCCCC4)cc3)n2)c1	18%
O=C(c1cn(-c2ccccc2)nc1-c1cccc2ccccc12)N1CCOCC1	1%

Two consecutive records out of the list so far, for reference:
SMILES	Mtb H37Rv
Cc1ccc(C)c(-c2csc(NC(=O)c3ccc(S(=O)(=O)N4CCCCCC4)cc3)n2)c1	18%
O=C(c1cn(-c2ccccc2)nc1-c1cccc2ccccc12)N1CCOCC1	1%

Further compounds.
SMILES	Mtb H37Rv
O=C1c2cccc3cccc(c23)C(=O)N1CCc1ccc(S(=O)(=O)N2CCOCC2)cc1	i
Cc1cc(C)cc(NC(=O)CSc2ccc(Br)cc2)c1	i
CC(=O)Nc1ccc(-c2nc3cc(Cl)cc(Cl)c3o2)cc1	7%
C=CCn1c(-c2ccco2)n[nH]c1=S	2%
OC(CN1CCCCC1)Cn1c2ccccc2c2ccccc21 (stereo not drawn)	i
Cc1ccc(S(=O)(=O)N(CC(=O)N2CCCCCC2)c2cccc(C)c2)cc1	i
CC(=O)c1cccc(NC(=O)Nc2cc(C(F)(F)F)ccc2F)c1	i
CC(C)(C)OC(=O)NNC(=S)Nc1ccc(F)c(Cl)c1	i
COCCNC(=O)c1cccc(NS(=O)(=O)c2ccc(C)cc2)c1	i
O=C(CN(Cc1ccc(Cl)cc1Cl)S(=O)(=O)c1ccc(Cl)cc1)NCc1ccccn1	2%
CCn1nc(C)c(NC(=S)Nc2cc(Cl)ccc2OC)c1C	i
Cc1ccc(S(=O)(=O)c2cc3c(=O)n4ccccc4nc3n(CCCN3CCOCC3)c2=N)cc1	i
COc1ccc(CC(=O)NC(=S)N2CCOCC2)cc1	3%
CCc1cccc(C)c1NC(=O)CN(Cc1ccccc1)S(=O)(=O)c1cc(Cl)ccc1Cl	9%
COc1ccc2c(c1)C(OC(C)=O)C(C)(C)C(c1ccc3c(c1)OCO3)N2 (stereo not drawn)	7%
Cc1ccc(CN2C(=O)c3oc4ccc(F)cc4c(=O)c3C2c2cccc(Br)c2)cc1 (stereo not drawn)	i
Cc1ccc(S(=O)(=O)Cc2cccc(C(=O)Nc3ccccc3)c2)cc1	i
CCOC(=O)Nc1cccc(NC(=O)C(c2ccccc2)c2ccccc2)c1	2%
N#CCc1ccc(NC(=O)c2cccs2)cc1	i
C=CCn1c(N)cc(=O)nc1SCC(=O)Nc1ccccc1C(=O)OC	i
CCCCc1ccc(NC(=O)CSCC(N)=O)cc1	48%
COC(=O)c1cc(NC(=O)c2ccc(Cl)cc2)ccc1Cl	7%
O=C(C1=C(O)C(=O)N(CCN2CCOCC2)C1c1ccco1)c1cccs1 (stereo not drawn)	i
Cc1ccccc1NC(=O)CC1Sc2ccc(C(F)(F)F)cc2NC1=O (stereo not drawn)	i
NC(=O)C1(N2CCCCC2)CCN(C(=S)Nc2cccc(C(F)(F)F)c2)CC1	i
CC(C)CNS(=O)(=O)c1ccc2c(c1)OCCO2	i
COc1cc(C)ccc1OCCOCCOc1cc(C(C)C)ccc1C	i
N#Cc1ccccc1NC(=O)COc1ccc(Br)cc1Cl	i
Cc1cccc2c1nc(-c1ccccc1)n1nnnc21	1%
Cc1c(NC(=S)NC(=O)C(c2ccccc2)c2ccccc2)cccc1[N+](=O)[O-]	i
COc1ccc(NC(=O)c2ccccc2OCC(=O)N2c3ccccc3CCc3ccccc32)c(C)c1	i
COc1ccc(NC(=S)N2CCN(c3ncccn3)CC2)cc1OC	i
CC(C)(C)NCCOCCOc1ccccc1-c1ccccc1	i
Cc1cc(OCC(=O)N2CCC(C)CC2)cc2oc(=O)c3ccccc3c12	i
COc1ccc2nc(NC(=O)c3ccc(S(=O)(=O)N4CCOCC4)cc3)sc2c1	i
CN1CCN(C(=O)COc2ccc([N+](=O)[O-])cc2)CC1	i
CC(C)c1ccc(OCc2nnc(SCC(=O)NC3CCCCC3C)o2)cc1 (stereo not drawn)	10%
COc1ccc(F)cc1S(=O)(=O)n1cnc2ccccc21	i
O=C(Nc1ccccc1Br)c1sc2cccc(Cl)c2c1Cl	i
CC(=O)Nc1ccc(C(=O)OCc2ccc(C(C)=O)cc2)cc1	i
CCC(Oc1cccc(NC(=O)c2cccc(OC)c2)c1)C(=O)c1ccccc1 (stereo not drawn)	2%
CCOc1cccc(C2NC(=O)NC(O)(C(F)(F)F)C2C(=O)c2cccs2)c1 (stereo not drawn)	i
CC(=O)Oc1c2ccoc2cc2oc(=O)ccc12	1%
O=C(CCN1CCOCC1)Nc1ccc(Cl)cc1	i
O=C(CCN1C(=O)c2ccccc2S1(=O)=O)Nc1cccc2ccccc12	i
CC(CC(=O)Nc1ccc(S(=O)(=O)N2CCCC2)cc1)c1ccccc1 (stereo not drawn)	i
CCOc1ccc(OCCn2c(=S)[nH]c3c(N)ncnc32)cc1	3%
CC(Sc1n[nH]c2nc3ccccc3n12)C(=O)O (stereo not drawn)	i
CC(=O)c1cc2c(cc1NC(=O)CN1CCC(Cc3ccccc3)CC1)OCO2	i
COc1ccc(OC)c(N(CC(=O)Nc2cccc(Cl)c2C)S(C)(=O)=O)c1	i
CC(=O)n1c(C#N)c(O)c2ccccc21	i
CCOc1cc(NC(=O)c2ccco2)c(OCC)cc1NC(=O)c1ccccc1	i
CC12CN(C(=O)c3ccccc3)CC(C)(CN(C(=O)c3ccccc3)C1)C2	i
CS(=O)(=O)N(CC(=O)Nc1ccc2c(c1)OCO2)Cc1ccc(Cl)cc1	i
COc1ccc(-c2cc(C(F)(F)F)n3nc(C(=O)NCCN4CCOCC4)cc3n2)cc1	0%
COc1c(C)cc(Br)cc1C(=O)Nc1ccc2oc(-c3cccnc3)nc2c1	7%
N#C/C(=C\c1ccc(F)cc1)S(=O)(=O)c1ccccc1	i
CN(CC(=O)N1CCOCC1)S(=O)(=O)c1ccc2ccccc2c1	i
CC(C)(C)NCC(O)COc1ccc(Br)cc1 (stereo not drawn)	0%
O=C(CC(Sc1n[nH]c(-c2ccccc2)n1)c1ccccc1)NCc1ccccc1 (stereo not drawn)	i

Part of the list above, as labelled records:
CC(Sc1n[nH]c2nc3ccccc3n12)C(=O)O (stereo not drawn)
  Mtb H37Rv = i
CC(=O)c1cc2c(cc1NC(=O)CN1CCC(Cc3ccccc3)CC1)OCO2
  Mtb H37Rv = i
COc1ccc(OC)c(N(CC(=O)Nc2cccc(Cl)c2C)S(C)(=O)=O)c1
  Mtb H37Rv = i
CC(=O)n1c(C#N)c(O)c2ccccc21
  Mtb H37Rv = i

(further entries)
SMILES	Mtb H37Rv
COc1ccc(C(=O)Nc2ccc(Cl)cc2C(=O)N2CCCC2)cc1	i
COc1c(C)cccc1C(=O)N1CCN(c2ccc([N+](=O)[O-])c(N3CCCCC3)c2)CC1	i
O=S(=O)(Nc1ccc(S(=O)(=O)N2CCOCC2)cc1)c1ccc(F)cc1	i
O=C(CSc1ncn[nH]1)N1c2ccccc2CCc2ccccc21	i
CNC(=O)C(C)Oc1cccc(Cl)c1 (stereo not drawn)	i
COc1ccc(N2CCN(S(=O)(=O)c3ccccc3F)CC2)cc1	i
Cc1cc(Cl)c(OCCOCCN(C)C)c(Br)c1	i
O=c1[nH]c(CN2CCN(C/C=C/c3ccccc3)CC2)nc2ccccc12	i
CC1CCN(c2ccccc2NC(=O)CSc2ccc(Cl)cc2)CC1	i
COc1ccc(C(=O)Nc2ccccc2C(=O)Nc2cccc(C)c2)c(OC)c1OC	i
COc1ccc(OCC(=O)Nc2cc(Cl)ccc2N2CCOCC2)cc1	i

Source: PubChem
